TRPML1 inh – qHTS for Inhibitors of the Human Mucolipin Transient Receptor Potential 1 (TRPML1); AID 624415, 2012; activity change, negative = inhibition, % (no concentration beside the values); Mucolipin-1 (Homo sapiens), Q9GZU1; actives 0.02% (n = 390,000); TRPML1-inducible cells, Ca2+ dye fluorescence, FDSS; stronger effect = lower value; inhibition of EC80 agonist-evoked calcium signal; in the data active means activity change below about -50%; inconclusive means about -30% to -50%; inactive means above about -30%;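 also: stimulus is agonist 54-4 at its EC80 concentration; % is scaled to controls: 0 for no effect and ±100 for the full control effect; compound concentration not given in the record; the text of the record puts the active cut at -80%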
Target sequence (Q9GZU1 whole entry, looked up): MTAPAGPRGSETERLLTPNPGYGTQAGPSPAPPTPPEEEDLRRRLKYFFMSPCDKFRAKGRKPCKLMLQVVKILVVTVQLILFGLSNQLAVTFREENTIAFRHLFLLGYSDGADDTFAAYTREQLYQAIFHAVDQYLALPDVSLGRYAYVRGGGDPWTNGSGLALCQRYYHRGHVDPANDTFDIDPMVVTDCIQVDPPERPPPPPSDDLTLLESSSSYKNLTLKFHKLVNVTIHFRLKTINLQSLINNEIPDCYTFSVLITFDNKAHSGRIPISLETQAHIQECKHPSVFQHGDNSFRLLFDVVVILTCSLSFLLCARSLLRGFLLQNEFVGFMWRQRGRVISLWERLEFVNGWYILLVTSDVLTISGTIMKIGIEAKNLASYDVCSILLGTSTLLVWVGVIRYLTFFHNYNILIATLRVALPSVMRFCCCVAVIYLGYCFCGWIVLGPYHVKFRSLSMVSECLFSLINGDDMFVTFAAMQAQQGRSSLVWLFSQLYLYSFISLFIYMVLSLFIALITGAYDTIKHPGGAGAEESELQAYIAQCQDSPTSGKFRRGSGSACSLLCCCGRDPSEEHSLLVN
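Calcium fluorescence in TRPML1-DL cells induced overnight with Tet: a 110 s read after compound pin addition, then a 110 s antagonist read after challenge with 54-4 at 4 uM final (EC80).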
TRPML1 ag – qHTS for Agonists of the Human Mucolipin Transient Receptor Potential 1 (TRPML1); TRPML1-expressing cells, Ca2+ dye fluorescence, FDSS; host cell line not named in the record; reference of the full effect not given here; activation, % (no concentration beside the values); actives 0.12% (n = 410,000); AID 624414, 2012; in the data active = activation above about 50%; inconclusive = about 30% to 50%; inactive = below about 30%; also: 0% is about no effect; the text of the record puts the active cut at 80%
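Tet-induced TRPML1-DL cells, 1,500 per well, cultured overnight, were loaded with a no-wash Ca2+ dye for 45–90 min. Calcium fluorescence was recorded on the FDSS for 110 s after compound addition, before the EC80 agonist (4 uM 54-4) was added.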
The depositor's hits bear a star; ? = inconclusive; & = joins results of further samples. An excerpt. The share of hits here may be higher or lower than overall.

SMILES	TRPML1 inh	TRPML1 ag
COc1ccc(-c2cc(C(F)(F)F)nc(NCc3ccc(F)cc3)n2)cc1	51.1	1.4
CCc1ccc(CNC(=O)C2Cc3cc(S(=O)(=O)N4CCCCCC4)ccc3N2C(C)=O)cc1 (stereo not given)	-28.1	-0.8
COc1ccc(C2CC(=O)Nc3c2c(=O)nc2c(C)cccn32)cc1OC (stereo not given)	5.7	-0.8
Cc1cccc(C(=O)Nc2ccccc2OCc2cc(=O)n3c(C)csc3n2)c1	4.5	-0.3
CCCN(CCC)CC(O)Cn1cc(/C=C/C(=O)c2ccc(C)cc2)c2ccccc21 (stereo not given)	2.4	2.0
O=S1(=O)c2ccccc2N(Cc2ccccc2)c2ccccc21	-17.0	0.1
O=C(COCc1cc(-c2cccs2)on1)N1CCN(c2ccccc2)CC1	-14.5	1.1
Cc1ccc(CNC(=O)c2c(-c3ccccc3F)noc2C)o1	5.0	0.9
COc1ccc(NC(=O)Cn2cc(S(=O)(=O)Cc3ccc(F)cc3)c3ccccc32)cc1OC	0.5	0.0
COc1ccc(NC(=O)CSc2cn(CCNC(=O)c3ccc(OC)cc3)c3ccccc23)cc1	30.4	4.6
CCOC(=O)N1CCN(CCC(=O)Nc2cccc(F)c2)CC1	8.6	-0.7
CCOc1ccc(NC(=O)c2cnc(Nc3ccccc3OC)c3ccccc23)cc1	6.7	-0.3
CC(C)c1ccc(NC(=O)C2CCN(S(=O)(=O)c3cccc4nonc34)CC2)cc1	15.6	-0.6
Cc1ccccc1Nc1c(-c2ccccc2)nc2cccc(C)n12	-8.8	-0.8&-0.5
COc1ccc(-c2cc(C(F)(F)F)nc(SCC(=O)NCc3ccc(F)cc3)n2)cc1	22.9	0.0
CCOc1ccccc1CNC(=O)c1cnc2sc(N3CCCCCC3)nn2c1=O	-11.3	0.9
CCC(C)NC(=O)Cn1c(=O)n(Cc2ccc(C(=O)NCCCOC)cc2)c(=O)c2ccccc21 (stereo not given)	5.4	0.7
CCc1ccc(CNC(=O)c2ccc(CS(=O)c3ccc(Br)cc3)o2)cc1 (stereo not given)	34.7	0.6
COc1ccc(OC)c(N(CC(=O)NCc2ccccc2)S(=O)(=O)c2ccccc2)c1	24.5	0.8
Cc1ccc(C(=O)NCc2nnnn2-c2ccc(C)c(C)c2)cc1	12.1	0.9
O=C(CSc1nc(-c2ccccc2)cn1-c1ccccc1F)Nc1ccc(F)cc1	17.1	0.1
Cc1cc2n(n1)CCC(=O)N2Cc1ccc(C(=O)Nc2ccc(Br)c(C)c2)cc1	-20.6	1.7
COc1ccc(-n2c(SCC(=O)c3ccccc3)nc3c([nH]c4ccccc43)c2=O)cc1	-7.0	-0.2
CSc1cccc(NC(=O)CN(C)S(=O)(=O)c2ccc3c(c2)CCCN3C(C)=O)c1	4.3	-0.9
CCSc1ncc(Cl)c(C(=O)Nc2nc3ccc(S(C)(=O)=O)cc3s2)n1	2.5	1.8

Next results:
SMILES	TRPML1 inh	TRPML1 ag
Cc1ccccc1CNC(=O)CN1C(=O)CCCc2ccccc21	-7.4	0.6
Cc1ccc(NC(=O)c2cnc3sc(N4CCOCC4)nn3c2=O)cc1N(C)C	-2.2	-0.7
COc1ccc(S(=O)(=O)N(CC(=O)Nc2ccccc2Br)Cc2ccccc2)cc1	19.5	0.3
Cc1ccc(CCNC(=O)CCn2nc(-c3ccc(Cl)cc3)ccc2=O)cc1	-6.0	2.3
Cc1cccc(-c2nc(SCC(=O)NCc3ccco3)c3c(=O)n(C)c(=O)n(C)c3n2)c1	13.7	-0.5
COC(=O)c1cccc(NC2=NS(=O)(=O)c3ccccc32)c1	-2.4	-0.6
CN(C)CCNc1ncnc2c1cnn2-c1cccc(Cl)c1	13.0	0.4
O=c1c2oc3ccccc3c2n(Cc2ccc(Cl)cc2)c(=O)n1Cc1ccccc1	25.8	1.4
CC(=O)Nc1nnc(SCc2cc(=O)c3cccc(C)c3[nH]2)s1	-18.7	2.0
CCOC(=O)c1ccc(CN(Cc2ccccc2)S(=O)(=O)c2ccc(Cl)cc2)cc1	0.9	1.6
COc1ccc2oc(=O)c(C(=O)Nc3ccc(C(=O)O)cc3)cc2c1	6.7	2.0
COc1ccc(C(=O)CSc2nc3cc(C(=O)NC4CCCC4)ccc3c(=O)n2CC2CCCO2)cc1 (stereo not given)	10.8	-0.3
Cc1ccc(CNC(=O)CN2C(=O)COc3ccccc32)cc1	3.8	0.3
Cn1c(NCCCCO)nc2c1c(=O)n(Cc1ccc(Cl)cc1)c(=O)n2C	-8.3	-1.1
Cc1ccc(CSC2=Nc3ccccc3C3=NC(CCC(=O)NC4CCCCC4)C(=O)N23)cc1 (stereo not given)	13.4	-0.2
Cc1nc2c(-c3ccccc3)c(C)nn2c(C)c1CCC(=O)NCc1ccccc1Cl	-1.4	-1.2
Cc1oc2ncnc(N3CCOCC3)c2c1C(=O)N(Cc1ccccc1)C(C)C	31.9	1.4
CCOC(=O)c1c(C)[nH]c(CCC(=O)NCc2ccc(F)cc2)c1C	-13.5	2.6
CCCN1CCN(CCCNC(=O)c2ccc3c(c2)sc2nc(-c4ccc(OCC)cc4)cn23)CC1	6.0	0.2
O=C(Nc1ccc(F)cc1F)C1CCN(c2ncccn2)CC1	-18.4	-0.7
Cc1ccc(C)c(N2CCN(C(=O)c3ccc(Nc4nc5ccccc5n5nnnc45)cc3)CC2)c1	-9.4	0.1
CCC(C(=O)NCc1ccc(OC)c(OC)c1)n1nc(C)c2c(C)n(-c3ccc(C)cc3)nc2c1=O (stereo not given)	-2.8	1.7
O=C(NCCc1ccccc1)c1c[nH]c2ccc(S(=O)(=O)Nc3ccccc3F)cc2c1=O	-11.4	1.5
Cc1ccc(CN(C(=O)c2ccc(OCC(C)C)cc2)c2ccccn2)o1	-21.9	0.3
Cc1nn(C(C)C(=O)Nc2cccc(F)c2)c(=O)c2c1sc1ccccc12 (stereo not given)	-11.5	1.5

Taken from above:
`COc1ccc(S(=O)(=O)N(CC(=O)Nc2ccccc2Br)Cc2ccccc2)cc1` – TRPML1 ag = 0.3
`Cc1cccc(-c2nc(SCC(=O)NCc3ccco3)c3c(=O)n(C)c(=O)n(C)c3n2)c1` – TRPML1 inh = 13.7

Further entries follow:
SMILES	TRPML1 inh	TRPML1 ag
COc1ccc(C)cc1-n1c(SCC(=O)NCc2ccco2)nc2c([nH]c3ccccc32)c1=O	-8.2	-0.1
COCCN1C(=O)c2oc3ccc(C)cc3c(=O)c2C12C(=O)N(C)c1ccccc12 (stereo not given)	10.2	-0.3
CC(C)(C)c1ccc(Oc2nc3ccccn3c(=O)c2/C=C(\C#N)c2nc3ccccc3[nH]2)cc1	75.1	-0.1
CCN(C(=O)CSc1nc2ccccc2nc1Cc1cccc(OC)c1)c1cccc(C)c1	44.6	4.2
CCc1ccc(-c2nc(SCC(=O)NCC3CCCO3)c(-c3ccc(F)cc3)[nH]2)cc1 (stereo not given)	22.1	2.0
Cc1ccc(CCNC(=O)c2cn(C)c3ccc(S(=O)(=O)N4CCCCC4)cc3c2=O)cc1	-17.9	-0.7
Cc1ccc(CNC(=O)Cc2ccc(NC(=O)N3CCSc4ncccc43)cc2)cc1	-4.5	0.2
CCOc1ccc(NC(=O)Cn2c(CCC(=O)O)ccc2-c2ccc(C)cc2)cc1	?	0.5
CCN(CC)S(=O)(=O)c1ccc2nc(NC(=O)c3cccnc3)sc2c1	-14.4	-0.4
CCN1CCOC(=O)C1CC(=O)Nc1cc(C)ccc1OC (stereo not given)	-8.6	4.4
Cc1ccc2c(c1)c1c(c(=O)n(-c3ccccc3C)c(=O)n1CC(=O)NCc1ccccc1)n2C	8.6	1.6
CCc1ccc(NC(=O)CN(C)S(=O)(=O)c2ccc3c(c2)c(=O)n(C)c(=O)n3C)cc1	4.9	-0.2
CCOc1ccc(-c2cc3c(=O)n(Cc4nc(-c5ccc(OCC)c(OC)c5)oc4C)ccn3n2)cc1Cl	34.7	0.0
O=C(NCCC1=CCCCC1)c1ccc2c(c1)N(Cc1ccccc1)C(=O)c1ccccc1S2(=O)=O	-21.1	2.0
CCOc1cc(C(=O)Nc2ccc3nc(N4CCN(C)CC4)cc(C)c3c2)cc(OCC)c1OCC	-7.0	0.5
COc1ccc(Cn2c(C(=O)O)c(CNCCc3cccs3)c3ccc(C)cc32)cc1	8.8	5.2
CCOC(=O)c1c(NC(C)=O)c2c3c(sc2n1Cc1ccc(Cl)cc1)CCCC3	-6.8	-0.1
CCn1cc(C(=O)N2CCN(c3ccccc3)CC2)c(=O)c2cc(S(=O)(=O)N(C)C)ccc21	-6.8	-0.6
O=C1CN(Cc2ccccc2)S(=O)(=O)c2ccccc21	2.6	1.0
CCN(CC)c1cc2c(cc1F)c(=O)c(S(=O)(=O)c1ccc(C)cc1)cn2Cc1ccc(F)cc1	22.6	-0.8
Cc1ccc(Cl)cc1N1CCN(C(=O)c2cnn(C(C)(C)C)c2C2CCN(C(=O)OC(C)(C)C)CC2)CC1	-4.6	3.4
O=C(CSc1nccn1Cc1ccc(F)cc1)Nc1ccc2c(c1)OCCO2	19.1	3.1
COc1ccccc1CNC(=O)Cn1c(-c2cccs2)cc2cc(F)ccc21	21.2	1.0
Cc1ccc(-c2cn3nc(N4CCC(C(=O)Nc5ccccc5C)CC4)sc3n2)cc1	7.9	0.7
COc1ccccc1CNC(=O)CCn1c(=O)c2ccccc2n(CC(=O)Nc2ccc(C)cc2)c1=O	-4.2	-0.2

Other entries follow.
SMILES	TRPML1 inh	TRPML1 ag
CCOC(=O)C1=C(CS(=O)(=O)c2ccc(Br)cc2)NC(=O)NC1c1ccccc1 (stereo not given)	-12.5	-0.9
O=C(COc1ccccc1Cl)Nc1ccc2nc(SCC(=O)N3CCOCC3)sc2c1	5.3	3.7
COc1ccc(Cl)cc1NC(=O)c1cnc(SC)nc1-c1ccccc1	71.3	2.6
COc1ccc(-c2noc(N3CCC(C(=O)N4CCN(c5cccc(C)c5C)CC4)CC3)n2)cc1	19.6	0.6
COc1ccc(N(CC(=O)NCc2ccccc2Cl)S(=O)(=O)c2c(C)[nH]c(=O)[nH]c2=O)cc1	1.3	0.7
CSc1ccc(Cn2nnc(C(=O)Nc3ccc(C)cc3Cl)c2N)cc1	9.1	1.9
Cc1cc(C)cc(N(CC(=O)NCc2ccccc2Cl)S(=O)(=O)c2c(C)noc2C)c1	-14.3	0.4
COc1ccc(Cn2ccc3nc(C)c(C(=O)N4CCN(c5ccc(OC)cc5)CC4)cc3c2=O)cc1	-11.0	2.5
Cn1c(=O)c2c(nc(Oc3ccccc3Cl)n2Cc2ccc(C#N)cc2)n(C)c1=O	-6.4	0.1
OCc1cnc(SCc2ccc(F)cc2)n1Cc1ccc(F)cc1	-10.5	-0.1
CCOc1ccc(Nc2oc(-c3ccc(COc4ccccc4C)o3)nc2C#N)cc1	1.4	1.5
COc1ccc(Cl)cc1NC(=O)c1c(C(=O)Nc2cccc(C)c2C)sc2nc(C)cc(=O)n12	-9.2	-0.6
Cc1ccc(NC(=O)[C@@H](c2ccccc2)N2Cc3ccccc3C2=O)cc1F	3.9	1.1
COc1ccc(CNC(=O)CCc2nnc3n(C)c(=O)c4sccc4n23)cc1	-7.9	-0.4
CCOC(=O)c1ccc(NC(=O)C2CCN(S(=O)(=O)c3ccc4c(c3)CCCC(=O)N4)CC2)cc1	21.0	4.4
Cc1ccc(NC(=O)CSCc2cc(=O)c3ccccc3[nH]2)c(C)c1	-7.1	2.1
CCCS(=O)(=O)c1ncc(Cl)c(C(=O)Nc2c(C(=O)c3ccccc3)oc3ccccc23)n1	-15.3	-0.2
CCc1ccccc1NC(=O)C(NS(=O)(=O)c1ccc2c(c1)CCC(=O)N2)c1ccccc1 (stereo not given)	-11.2	0.0
CCN(CC)S(=O)(=O)c1ccc2c(c1)N(CC(=O)NCCCN1CCN(c3cc(Cl)ccc3C)CC1)C(=O)CO2	-4.3	1.6
Cn1cc(CN(C(=O)Nc2ccc(Cl)c(Cl)c2)C2CCCCC2)c2ccccc21	-12.2	-0.3
CCOC(=O)CNC(=O)c1ccc(-c2nn(C)c(=O)c3ccccc23)cc1	13.4	0.3
Clc1ccccc1-c1nc(Nc2ccccc2)nc2ccc(Br)cc12	31.7	3.8
Cc1cccc(C(=O)NCCc2nc3ccccc3n2Cc2ccccc2Cl)c1	-10.5	5.1
Cc1ccc(Cl)cc1N1CCN(c2ncnc3c2nc2n3CCCC2)CC1	11.0	1.0
Cc1ccc2[nH]c3c(=O)n(CC(=O)N4CCCC(C)C4)ncc3c2c1 (stereo not given)	-27.8	1.5
O=C1Nc2cc(Cl)ccc2Oc2cc(Oc3ccccc3)ccc21	20.2	-0.4
CCCCc1ccc(NC(=O)CSc2nc3ccccc3nc2N2CCOCC2)cc1	14.5	-0.3
CCOc1ccc(C2C(C(N)=O)=C(C)Nc3nc(SCc4ccccc4)nn32)cc1 (stereo not given)	15.0	-0.3

2 of these compounds, reformatted.
| compound | TRPML1 inh | TRPML1 ag |
| --- | --- | --- |
| Cn1cc(CN(C(=O)Nc2ccc(Cl)c(Cl)c2)C2CCCCC2)c2ccccc21 | -12.2 | -0.3 |
| COc1ccc(Cn2ccc3nc(C)c(C(=O)N4CCN(c5ccc(OC)cc5)CC4)cc3c2=O)cc1 | -11.0 | 2.5 |

Screening data from PubChem BioAssay.
